BJeLR lethal: kills HRASV12-expressing BJeLR cells | BJeLR (HRASV12) viability, CellTiter-Glo ATP luminescence, 48 h; reference of the scale not given here | inhibition, % (no concentration beside the values) | actives 0.17% (n = 300,000) | AID 1554;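 active = replicate mean above 50%; inconclusive = above 50% but judged a plate artefact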;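 also: 50 nL library stock added to about 25 µL; numbers are from one replicate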
Bead autofluor: compound fluorescence in toxin protease inhibitor counterscreen. compound autofluorescence counterscreen, microsphere flow cytometry; hits give high values. fluorescence intensity (no concentration beside the values). actives 3.1% (n = 360,000);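 active = at least 3 SD above the mean of all compounds, about 16000 in these data; inconclusive = too few beads counted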;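 also: 100 nL of 1 mM stock went into each well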
Sa RN4220 lethal: S. aureus RN4220 growth inhibition | OD600, 16 h | inhibition, % (no concentration beside the values) | actives 0.33% (n = 330,000);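 active = z-score of -3 or lower and OD600 up to 0.18 on both plates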;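 also: plate controls were untreated cells for no effect and reference antibiotic for full effect; stock transfer was 100 nL into about 80 µL; one replicate is shown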
Mtb hypoxia rep: Mtb hypoxia fluorescent reporter inhibition. M. tuberculosis hypoxia-regulated fluorescent reporter, fluorescence. fluorescence inhibition, % (no concentration beside the values). actives 0.1% (n = 300,000);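 active = 35 to 45% if threefold the growth effect, above 45% if 1.5-fold the growth effect; inactive = the rest, general growth blockers included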;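 also: wells of about 50 µL received 100 nL stock; 0% = vehicle wells and 100% = reference inhibitor wells; whole bacteria with a GFP reporter of the hypoxia response; strong numbers were not always called active; many hits fall short of the cut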
PrP UTR inh: inhibition of PrP 5' UTR reporter expression; cell-based PrP 5' UTR mRNA reporter, plate reader; inhibition, % (test concentration not listed); actives 0.35% (n = 340,000);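 active = every replicate at 50% or more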;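 also: 0 = median of the neutral control wells; tested in H4 reporter cells; numbers are from one replicate; inactives centre near -14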
ugtP null kill: growth inhibition of S. aureus ugtP deletion strain. growth inhibition, % (no concentration beside the values). S. aureus RN4220 ugtP deletion, OD600 growth, 16 h; some inactives read as strong as hits. AID 1259309. actives 0.54% (n = 330,000);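 active = z-score under -3 and OD600 up to 0.15 on both plates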;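 also: plate controls were untreated wells for no effect and antibiotic for full effect; wells of about 80 µL received 100 nL stock; the first replicate is given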
Mtb hypoxia rep growth: further read-out of Mtb hypoxia rep, marked with its call; growth inhibition, %; measured here: M. tuberculosis growth (absorbance);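 0% = vehicle and 100% = reference antibiotic; read after six days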
* = called active by the depositor; ? = inconclusive; · = not tested or not shown; & = joins results of further samples.

SMILES	BJeLR lethal	Bead autofluor	Sa RN4220 lethal	Mtb hypoxia rep	Mtb hypoxia rep growth	PrP UTR inh	ugtP null kill
CC(C(=O)Nc1ccccc1)N1CCN(c2ccccn2)CC1 (stereo not given)	11.7	3451	3.3	-0.6	5.1	-20.6	11.6
CCCOc1ccc(CN(C)c2ncnc(N)n2)cc1	-0.5	3272	1.6	7.3	-7.3	-15.9	9.2
CCC(CC)C(=O)OCC(=O)Nc1ccc(S(=O)(=O)N2CCOCC2)cc1OC	-0.6	9439	0.7	11.7	13.0	1.1	-2.5
CC1=NNC(=O)C1CC(=O)N/N=C/c1ccncc1 (stereo not given)	1.5	4915	·	·	·	-8.5	·
CCOc1ccc(CCNC(=O)CCc2nc3ccccc3[nH]2)cc1OCC	0.9	4446	1.8	0.9	-6.0	-18.5	3.5
CCC1CN(C(=O)N2CCC(C(=O)NCCc3ccc(OC)cc3OC)CC2)c2ccccc2O1 (stereo not given)	0.9	4114	2.2	5.0	-2.2	7.8	12.4
CC(=NNC(=O)c1ccc(-c2ccccc2)cc1)c1cccc(N)c1	·	·	3.9	8.4	8.1	·	2.8
COc1ccc(/C=C/C(=O)Nc2cc(C)nn2-c2nc3ccccc3[nH]2)cc1	-3.2	1984	-4.6	9.3	-0.8	-41.0	-15.2
Cc1ccc(-n2ncc3c(=O)[nH]c(SCC(=O)N4CCOCC4)nc32)cc1	-0.7	3996	1.4	·	·	-22.9	4.4
CC(=O)c1nn(-c2ccc(Br)cc2)cc1C(=O)c1ccccc1	-5.3	2547	4.2	6.5	3.6	-9.6	4.0
CCCCC[C@@H]1C=C(C(=O)O)[C@H](c2ccc(F)cc2)N1S(=O)(=O)c1ccc(C)cc1	·	3903	19.5	-4.1	3.4	-28.3	3.7
O=C(Cn1cncn1)N/N=C/c1c2ccccc2cc2ccccc12	-11.2	4281	·	·	·	-8.6	·
CC1(C)C([N+](=O)[O-])C(c2ccc(O)cc2)NC(c2ccc(O)cc2)C1[N+](=O)[O-] (stereo not given)	-0.5	9923	9.4	-1.4	-1.9	-9.4	3.3
CCN1C(=NCCc2cccs2)N[C@@H](c2cccs2)C(C(=O)OC)=C1C	4.2	4444	·	·	·	-4.7	·
O=C(Nc1ccccc1)Nc1ccccc1-n1ccnc1	18.5	2059	-0.5	6.6	13.8	-16.5	11.7
Cc1ccnc(NC(=O)CNC(=O)c2ccco2)c1	-6.6	6017	1.5	-2.8	-4.4	-17.8	2.1
COc1ccccc1N1CCN(C(=O)CN(c2ccc(C)c(C)c2)S(C)(=O)=O)CC1	-9.6	9292	3.2	15.3	4.2	-24.5	-1.4
O=C(Nc1nnc(S(=O)(=O)N2CCOCC2)s1)c1ccc(F)cc1	3.0	6411	13.8	0.5	13.6	-40.7	5.4
CNC(=S)/N=C/NOCc1ccc(Cl)cc1Cl	2.6	2620	·	·	·	-30.7	·
O=C(CN1CCCC1)Nc1ccc(S(=O)(=O)N2CCCCC2)cc1	1.6	5464	·	·	·	-21.1	·
O=C(CC1SCCNC1=O)Nc1ccc(F)c(Cl)c1 (stereo not given)	-6.7	3510	3.2	7.2	-1.2	-26.8	3.8
CN1CC(=O)Nc2ccc(F)cc2C1=O	-3.4	3061	-0.4	-8.1	1.1	-14.8	-2.8
O=C(CN1CCN(Cc2ccc(Cl)cc2)CC1)NN=Cc1ccccc1F	·	·	4.7	5.2	-1.2	·	2.7
O=C(CCSc1ccc(F)cc1)Nc1ccc(-n2cnnn2)cc1	3.3	4994	-5.6	·	·	9.1	12.5
Cc1nn2c(=O)cc(COC(=O)c3ccc(NC(=O)C(C)(C)C)cc3)nc2s1	-7.5	4894	-1.0	-15.5	3.4	-24.6	-3.8
More results
SMILES	BJeLR lethal	Bead autofluor	Sa RN4220 lethal	Mtb hypoxia rep	Mtb hypoxia rep growth	PrP UTR inh	ugtP null kill
Cc1c(NC(=O)COC(=O)Cc2ccc(F)cc2)c(=O)n(-c2ccccc2)n1C	-0.4	6096	5.2	8.5	-3.9	-26.6	10.9
NC(=O)NC(=O)COC(=O)CN1C(=O)C2CCCCC2C1=O (stereo not given)	2.8	2735	0.3	2.6	1.0	-25.6	6.9
O=C(CCc1ccccc1)C(=O)N1CCCC(C(=O)c2cccc(Cl)c2)C1 (stereo not given)	0.9	3285	4.3	1.8	3.2	-13.2	10.3
CCc1ccccc1NC(=O)CCNS(=O)(=O)c1ccc2c(c1)CCC(=O)N2	10.1	4926	5.2	11.5	7.1	-5.9	8.3
Cc1ccc2c(c1)NC(=O)[C@@]1(C)C(c3ccccc3)C3COc4ccccc4C3N1C2=O (stereo not given in full)	·	·	-1.2	8.7	16.0	·	2.6
CC1CCN(C(=O)CSc2nnc(-c3ccccc3F)o2)CC1	-10.2	5826	2.9	·	·	-2.0	-5.7
COc1cccc(NC(=O)CN2CCc3ccccc3C2)c1	4.4	3480	-0.8	-3.5	-21.4	-21.1	-2.7
C=CCN1c2ccccc2[C@]23C[C@@H](C(=O)OC)N(C(=O)C4CCC4)C2=NC(C(=O)OC)=C(C(=O)OC)[C@H]13	-9.6	4109	·	·	·	-4.3	·
CNS(=O)(=O)c1cccc(C(=O)NCC(c2cccs2)N2CCOCC2)c1 (stereo not given)	-12.4	6066	3.9	7.5	3.9	-8.7	10.1
CCC(=O)Nc1cc(C(=O)OCC(=O)c2ccc(Cl)cc2Cl)ccc1C	-9.2	6011	2.1	-6.9	6.2	7.2	-1.0
COc1ccc(C(=O)Nc2ccc(C)c(S(=O)(=O)N3CCCCCC3)c2)cc1	2.7	3411	4.7	-7.2	4.9	-1.7	-14.8
CC(NCC(=O)NCCc1ccc(S(N)(=O)=O)cc1)c1ccc(F)cc1 (stereo not given)	5.1	4395	5.2	11.3	6.9	5.9	11.9
CC1CC(C)CN(C(=O)c2cccc(NC(=O)CC3SC(N4CCCCC4)=NC3=O)c2)C1 (stereo not given)	·	2875	2.9	9.3	12.6	-44.1	2.3
O=C1C2C3C=CC(C3)C2C(=O)N1c1cccc2cccnc12 (stereo not given)	·	5059	2.6	·	·	-10.3	-10.9
COc1ccc(/C=N/Nc2nc3ccccc3o2)cc1OC	-0.8	11474	·	·	·	-101.3	·
CN1CCN(C(=O)C2=CC(c3coc4ccccc4c3=O)CC(OCCCCO)O2)CC1 (stereo not given)	·	·	4.1&7.5	4.8&2.8	3.6&4.0	·	0.6&-2.8
Cc1ccc(C=NNC(=O)c2ccccn2)o1	·	·	9.0	-3.0	6.1	·	5.9
CC(C)Cc1ccc(CN2CCCC(NC(=O)CCn3cnnn3)C2)cc1 (stereo not given)	1.3	6737	·	·	·	-10.8	·
COc1ccc(OC)c(N=C(N)N=C(N)N)c1	-8.2	3194	5.1	11.7	-1.2	42.0	2.5
NC(=O)[C@@H]1CC2(CC(c3cccc(NC(=O)[C@H]4CCC(=O)N4)c3)=NO2)CN1C(=O)c1ccc(Cl)cc1 (stereo not given in full)	-12.3	3975	·	·	·	-11.8	·
Cn1nnnc1SCC(=O)N1c2ccccc2Sc2ccc(Cl)cc21	·	2850	-3.1	·	·	-12.3	7.6
O=C(N1CCOCC1)N1CCN(c2ccc(F)cc2)CC1	-5.7	12294	3.2	1.3	3.6	-4.9	3.6
O=S(=O)(NCCN1CCOCC1)c1cccs1	2.2	4239	0.5	-7.1	4.2	-0.9	-1.1
COc1cccc(/C=N/NC(=O)CSc2ccccc2C)c1OC	-6.4	2146	·	·	·	-16.6	·
COc1ccc(NC(=O)COc2cccc(C(F)(F)F)c2)cn1	3.7	?	1.8	-0.5	-3.9	-7.0	1.7

Four of the compounds above, with each value named:
> COc1ccccc1N1CCN(C(=O)CN(c2ccc(C)c(C)c2)S(C)(=O)=O)CC1
  BJeLR lethal: -9.6
  Bead autofluor: 9292
  Sa RN4220 lethal: 3.2
  Mtb hypoxia rep: 15.3
  Mtb hypoxia rep growth: 4.2
  PrP UTR inh: -24.5
  ugtP null kill: -1.4

> COc1ccc(C(=O)Nc2ccc(C)c(S(=O)(=O)N3CCCCCC3)c2)cc1
  BJeLR lethal: 2.7
  Bead autofluor: 3411
  Sa RN4220 lethal: 4.7
  Mtb hypoxia rep: -7.2
  Mtb hypoxia rep growth: 4.9
  PrP UTR inh: -1.7
  ugtP null kill: -14.8

> Cc1ccnc(NC(=O)CNC(=O)c2ccco2)c1
  BJeLR lethal: -6.6
  Bead autofluor: 6017
  Sa RN4220 lethal: 1.5
  Mtb hypoxia rep: -2.8
  Mtb hypoxia rep growth: -4.4
  PrP UTR inh: -17.8
  ugtP null kill: 2.1

> Cn1nnnc1SCC(=O)N1c2ccccc2Sc2ccc(Cl)cc21
  BJeLR lethal: ·
  Bead autofluor: 2850
  Sa RN4220 lethal: -3.1
  Mtb hypoxia rep: ·
  Mtb hypoxia rep growth: ·
  PrP UTR inh: -12.3
  ugtP null kill: 7.6

One compound at a time, as listed above. Order of screens: BJeLR lethal | Bead autofluor | Sa RN4220 lethal | Mtb hypoxia rep | Mtb hypoxia rep growth | PrP UTR inh | ugtP null kill
Profile of COc1ccc(OC)c(N=C(N)N=C(N)N)c1 : -8.2 | 3194 | 5.1 | 11.7 | -1.2 | 42.0 | 2.5
Profile of CNS(=O)(=O)c1cccc(C(=O)NCC(c2cccs2)N2CCOCC2)c1 (stereo not given) : -12.4 | 6066 | 3.9 | 7.5 | 3.9 | -8.7 | 10.1

Entries listed so far containing an NH in an aromatic ring (3):
SMILES	BJeLR lethal	Bead autofluor	Sa RN4220 lethal	Mtb hypoxia rep	Mtb hypoxia rep growth	PrP UTR inh	ugtP null kill
CCOc1ccc(CCNC(=O)CCc2nc3ccccc3[nH]2)cc1OCC	0.9	4446	1.8	0.9	-6.0	-18.5	3.5
COc1ccc(/C=C/C(=O)Nc2cc(C)nn2-c2nc3ccccc3[nH]2)cc1	-3.2	1984	-4.6	9.3	-0.8	-41.0	-15.2
Cc1ccc(-n2ncc3c(=O)[nH]c(SCC(=O)N4CCOCC4)nc32)cc1	-0.7	3996	1.4	·	·	-22.9	4.4

The listing continues:
SMILES	BJeLR lethal	Bead autofluor	Sa RN4220 lethal	Mtb hypoxia rep	Mtb hypoxia rep growth	PrP UTR inh	ugtP null kill
CC(C)(C)CC(C)(C)NC(=O)c1ccccc1	3.6	3336	6.4	·	·	-5.7	2.4
Cc1ccc(S(=O)(=O)N2CCN(C(=O)c3cccc(F)c3)CC2)cc1	-0.8	3231	0.1	-9.8	-7.2	-14.0	8.7
CCOc1ccc2[nH]c(C(=O)NN=Cc3cccc(OC)c3OC)cc2c1	·	·	3.2	-9.9	3.2	·	8.1
Nc1nc(SCC(=O)NCc2ccccc2)n[nH]1	-5.9	2752	-12.3	13.3	13.6	-8.5	-6.1
CCCCCCn1c(=O)c(Cc2ccccc2)c(O)c2ccccc21	4.4	2448	-1.4	0.1	-9.7	-13.3	-46.1
CCOC(=O)N1CCN(C2CC(=O)N(c3ccc(C)cc3)C2=O)CC1 (stereo not given)	1.7	3396	-3.1	·	·	-4.7	1.0
COc1ccc(C(=O)n2c(C)c(CCO)c(=O)n2C)cc1	6.7	2686	-6.5	-6.3	-1.9	-22.9	-2.1
CCN(CC(=O)Nc1ccccc1C(F)(F)F)C(=O)CN1C(=O)NC(C)(c2ccccc2)C1=O (stereo not given)	-9.3	5467	3.4	1.1	4.4	-18.4	4.6
COc1ccc(CC(C)=NNC(=O)c2cccnc2)cc1	·	·	0.6	-1.4	7.4	·	-2.0
O=C(Cn1nc(-c2ccccc2)ccc1=O)Nc1ccc(NC(=O)c2ccccn2)cc1	-1.2	4641	10.7	16.4	-4.4	-15.8	2.4
CCC(=NO)c1cnnc(SC)n1	·	·	2.7	6.4	13.4	·	10.4
C[C@H]1CN([C@@H](C)CO)C(=O)c2cc(NC(=O)C3CCCCC3)ccc2O[C@H]1CN(C)CC1CCCCC1	·	3707	-12.6	2.6	9.4	-22.7	-7.5
CN(C)/C=N/c1nc2nccc(-c3cccs3)n2n1	-6.4	14311	·	·	·	-11.0	·
CCn1c(SCC(=O)Nc2ccc(N(C)C)cc2)nnc1C1CC1	1.8	3372	1.4	7.0	8.6	-30.5	16.1
O=C(NN=CC1CCCCC1)c1ccccc1-n1cccc1	·	·	2.6	-4.3	-1.5	·	5.1
CC(=O)c1ccc(S(=O)(=O)NCCC(=O)NC(C)c2ccncc2)cc1 (stereo not given)	·	4593	0.3	-0.4	-1.3	-1.2	-3.0
Cc1c(C(=O)NC2CCCCC2C)oc2ccccc12 (stereo not given)	-5.5	5722	-3.4	4.8	12.6	-24.3	-11.6
CCOc1c(Cl)cc(C=NNC(N)=S)cc1OC	·	·	5.8	·	·	·	15.2
Cc1cc2nc(SCCOC(=O)Nc3ccccc3)nc(C)c2cc1C	-8.5	2179	10.9	2.5	7.1	-12.6	7.4

High-throughput results as filed in PubChem.
